Screens from PubChem BioAssay.
Arbovirus inh – blocks arbovirus infection; arbovirus infection cell-based antiviral screen; inhibition, % at 10 µM; hit rate 0.37% among 200,000; AID 1251;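 active means inhibition from about 30%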;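 further: bluetongue infection of BSR cells; cell survival read as ATP light after 72 h; 0% = infected wells without compound and 100% = uninfected wells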
Mtb growth – M. tuberculosis H37Rv growth inhibitors, H37Rv strain (AID 1626); M. tuberculosis H37Rv growth inhibition; higher % means a stronger effect; inhibition, % at 10 µM, or IC50 in µM where a hit was titrated; hit rate 0.95% among 220,000;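 active means confirmed in a dose series; inconclusive means inhibition above 80% but not taken into the dose series; inactive means below 80% or under 30% at every dose of the series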;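 further: bacteria incubated seven days before Alamar blue readout; 0% = bacteria only wells and 100% = bacteria with antibiotic wells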
RecA intein inh – Mtb RecA intein splicing inhibition; P9WHJ3; cell-free RecA intein splicing, fluorescence; inhibition, %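 (about 9 µM by stock and volumes)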; hit rate 0.75% among 290,000; AID 2221; in the data active means inhibition above about 30%; inconclusive means no clear call, values can overlap the other calls;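 further: 0% = vehicle wells and 100% = reference inhibitor control wells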
Target sequence (P9WHJ3 whole entry, looked up): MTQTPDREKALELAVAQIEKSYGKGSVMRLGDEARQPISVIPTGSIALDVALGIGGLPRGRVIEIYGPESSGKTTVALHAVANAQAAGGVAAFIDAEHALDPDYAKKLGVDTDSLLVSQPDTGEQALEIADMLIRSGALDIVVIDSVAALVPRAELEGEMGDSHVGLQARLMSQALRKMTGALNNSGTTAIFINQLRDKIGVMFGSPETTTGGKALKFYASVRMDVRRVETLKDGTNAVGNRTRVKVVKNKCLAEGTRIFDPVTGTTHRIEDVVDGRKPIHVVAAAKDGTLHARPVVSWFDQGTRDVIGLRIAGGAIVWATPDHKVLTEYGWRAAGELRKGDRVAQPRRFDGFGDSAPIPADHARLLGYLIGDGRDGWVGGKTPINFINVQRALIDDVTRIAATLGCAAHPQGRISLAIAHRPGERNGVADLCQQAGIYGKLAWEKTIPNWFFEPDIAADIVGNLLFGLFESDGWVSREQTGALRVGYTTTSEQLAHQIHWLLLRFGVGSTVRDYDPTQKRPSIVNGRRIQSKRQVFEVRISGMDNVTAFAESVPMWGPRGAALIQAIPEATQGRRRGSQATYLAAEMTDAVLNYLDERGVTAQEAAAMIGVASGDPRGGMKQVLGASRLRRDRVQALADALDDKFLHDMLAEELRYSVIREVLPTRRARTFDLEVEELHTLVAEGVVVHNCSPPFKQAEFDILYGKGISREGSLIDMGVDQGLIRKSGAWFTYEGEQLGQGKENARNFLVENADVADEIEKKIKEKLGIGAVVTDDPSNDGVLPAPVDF
YopH inh – blocks Yersinia enterocolitica YopH tyrosine phosphatase; fluorescence Ex485/Em525; inhibition, %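 (about 10 µM by stock and volumes)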; hit rate 0.16% among 140,000; AID 898;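 active means inhibition of 50% or more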;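 further: controls were vehicle for no effect and minimum signal wells for full effect; inactives centre near -20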
Mtb betalactam – beta-lactam sensitization of Mtb H37Rv | M. tuberculosis H37Rv growth with meropenem, percent inhibition; hits of this screen are not shown here | inhibition, % at 25 µM | hit rate 0.27% among 330,000 | AID 434955;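 active means about 74% or more and at least 40 points above the plate without the antibiotic, then above 30% in a dose series; inconclusive means first-round hits that could not be retested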;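 further: growth measured after seven days incubation then overnight dye step; 0% = bacteria only wells and 100% = bacteria with antibiotic; twin plates without the antibiotic show which effects depend on it; some results filed as inactive read as strong as hits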
Arbovirus inh repeat – further read-out of Arbovirus inh, marked with its call; inhibition, %; measured here: 10K subset replicate screen; many hits read low in the repeat;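 first of two repeat runs on a subset; 0% = infected and 100% = uninfected wells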
Numbers without * were called inactive; u = inconclusive; x = no result given.

SMILES	Arbovirus inh	Mtb growth	RecA intein inh	YopH inh	Mtb betalactam	others
CC(C)(C)OC(=O)C(C)(C)Sc1nnc(N)s1	x	-15.8%	x	x	-9.7
CCc1ccc(NC(=O)CN2C(=O)CSC2=O)cc1	-1.6	-2.3%	0.0	-13.1	-1.5
CC1CCCCN1S(=O)(=O)c1ccc(C(=O)Nc2ccccc2-c2nc3ccccc3s2)cc1 (stereo unspecified)	-9.7	x	-1.4	-24.2	-4.8
Cc1noc(C)c1CSCC(=O)N1CCN(c2ccc([N+](=O)[O-])cc2)CC1	12.7	3.3%	-1.7	-20.7	-1.7
COC(=O)Cc1c(O)ccn(CCc2ccc(OC)c(OC)c2)c1=O	6.3	5.7%	1.9	x	-4.2
COc1ccc(CC(CC(=O)O)C(=O)Nc2ccc(OC)cc2)cc1 (stereo unspecified)	-0.3	-2.0%	1.9	-11.7	-8.2
Nc1ccc(Nc2ccncc2[N+](=O)[O-])cc1	4.7	-1.1%	-1.5	-1.0	0.5
CCOC(=O)C1CCN(C(=O)C2CCN(C(=O)c3ccc([N+](=O)[O-])cc3)CC2)CC1	x	x	0.0	x	7.2
Nc1nc(-c2ccc(F)cc2)cc(C(F)(F)F)n1	25.1	-5.3%	-1.8	1.0	-5.0
COc1ccc(NC(=O)c2cc3n(n2)C(C(F)(F)F)CC(c2ccc4c(c2)OCO4)N3)cc1OC (stereo unspecified)	-36.8	x	x	-35.0	-3.6
Cn1c(CNc2cccc(Cl)c2)nnc1SCC(=O)OC1CCCCC1	13.4	62.1%	3.3	-5.0	100.0
N#Cc1ccc(N2Cc3ccccc3/C2=N/C(=O)Nc2ccc(Cl)cc2)cc1	-1.7	9.5%	-0.3	-4.2	1.3
COCCCNC(=O)c1ccc2c(=O)n(Cc3ccc4c(c3)OCO4)c(=S)[nH]c2c1	-5.3	-6.8%	0.5	8.8	-0.6
Cc1cccc(N(C(=O)Cn2nnc3ccccc32)C(C(=O)NCc2ccco2)c2ccncc2)c1C (stereo unspecified)	3.8	-3.7%	-0.7	-10.3	-1.4
COCCCN(C(=S)NC(=O)c1ccc(C(C)(C)C)cc1)c1c(N)n(Cc2ccccc2)c(=O)[nH]c1=O	0.3	-2.1%	2.4	-33.7	3.4
Clc1ccccc1C1SCC2Nc3ccccc3CN21 (stereo unspecified)	-0.2	-0.3%	8.5	-31.0	-21.2
Cc1c(Cl)cccc1NC(=O)CCN1CCN(C)CC1	x	x	-2.6	x	-5.4
O=C(CCCOc1ccc(Cl)cc1Cl)NCc1ccncc1	-0.3	-22.7%	-1.8	x	-0.8
CCOC(=O)c1cc(S(=O)(=O)NCCc2ccc(OC)c(OC)c2)cn1C	x	x	-0.5	x	1.6
O=C(O)CCC(=O)OC1CC2CCC1C2 (stereo unspecified)	-1.5	-4.0%	-1.9	-28.5	-5.9

Retrieved by structure from the entries so far (3):
SMILES	Arbovirus inh	Mtb growth	RecA intein inh	YopH inh	Mtb betalactam	others
Nc1ccc(Nc2ccncc2[N+](=O)[O-])cc1	4.7	-1.1%	-1.5	-1.0	0.5
CC1CCCCN1S(=O)(=O)c1ccc(C(=O)Nc2ccccc2-c2nc3ccccc3s2)cc1 (stereo unspecified)	-9.7	x	-1.4	-24.2	-4.8
Nc1nc(-c2ccc(F)cc2)cc(C(F)(F)F)n1	25.1	-5.3%	-1.8	1.0	-5.0

(further entries)
SMILES	Arbovirus inh	Mtb growth	RecA intein inh	YopH inh	Mtb betalactam	others
Cc1ccc(NC(=O)c2ccccn2)cc1S(=O)(=O)N1CCOCC1	20.0	-4.7%	-9.7	x	13.2
CCc1cc(C(=O)O)c(NC(=O)C(c2ccccc2)c2ccccc2)s1	34.7*	-3.9%	8.0	-10.2	-4.6
Cc1c(NC(=O)COC(=O)Cc2ccc(Cl)cc2)c(=O)n(-c2ccccc2)n1C	4.5	x	-3.3	-17.2	-11.1
COc1ccccc1NC(=O)C(=O)NCCC1CCCCN1S(=O)(=O)c1ccc(F)cc1 (stereo unspecified)	x	x	3.0	x	-7.3
COc1cccc(CNC(=O)CCS(=O)(=O)c2ccc3c(c2)CC(C)N3C(=O)C2CC2)c1 (stereo unspecified)	x	x	1.1	x	-11.3
O=C(COc1ccccc1Cl)NCc1ccco1	-3.6	-8.2%	x	1.4	3.5
Cc1cccc(C)c1NS(=O)(=O)c1ccc(-c2cnc(C3CC3)o2)cc1	x	x	8.8	x	-3.1
COc1ccc(OC)c(NC(=O)NCCCCc2ccccc2)c1	x	x	9.7	x	0.8
COc1ccc(NC(=O)C2CC(=O)OC2c2ccccc2)cc1 (stereo unspecified)	6.5	10.8%	2.3	-12.2	0.5
Cc1noc(C(=O)Nc2cccnc2Cl)c1Cl	x	x	-3.8	x	-7.9
CCCCN(CC)CCCNC(=O)c1ccc(CS(=O)(=O)c2c(Cl)cccc2Cl)o1	x	x	-0.7	x	-2.6
N#Cc1c(C(F)(F)F)cc(-c2ccc(Cl)cc2)[nH]c1=O	42.5*	-8.1%	-37.7	-31.3	7.3
CN1C(=O)C(=Cc2ccccc2OCCOc2ccc([N+](=O)[O-])cc2)C(=O)N(C)C1=O	-4.1	-1.3%	2.6	x	0.9
CN1C(=O)NC(c2cccc([N+](=O)[O-])c2)C2=C1CC(C)(C)CC2=O (stereo unspecified)	x	x	-1.2	x	1.8
CCOC(=O)c1cc(CC)sc1NC(=O)C1CC(=O)NN1Cc1ccccc1 (stereo unspecified)	1.2	5.0%	-2.1	-23.4	1.3
CC(C)=CCCC(C)CN1CCC(N2CCC(C(=O)NC(C)C)CC2)CC1 (stereo unspecified)	-18.3	6.4%	-11.8	x	-6.2
COc1ccc(CC(=O)Nc2cccc(-c3ccc4nnc(C)n4n3)c2)cc1OC	-9.3	-4.7%	-4.1	x	-5.0
COC(=O)c1ccc(CS(=O)(=O)c2ccc(F)cc2)o1	x	x	1.4	x	-7.6
COc1ccccc1NC(=O)Cc1csc(NC(=O)c2ccccc2)n1	-6.3	-23.0%	-0.5	x	6.3
O=C(Nc1ccccc1)OCCOc1ccc(Br)cc1	x	x	2.0	x	-6.9
CC(C)Cc1nnc(NC(=O)CCC(=O)NCCc2ccc(Cl)cc2)s1	x	x	-1.1	x	7.6
COc1ccc(C(O)c2nccc3cc(OC)c(OC)cc23)cc1OC (stereo unspecified)	3.6	4.7%	53.4*	x	-10.6
CCC(=O)NCc1nc2ccccc2n1Cc1ccccc1F	3.8	-10.9%	-1.5	-24.9	-6.9	Arbovirus inh repeat=-1.5
Cc1nc2ccc(NC(=O)c3cncc(Br)c3)cc2s1	x	26.9%	1.1	x	14.4
COC(=O)CC1C(=O)NCCN1C(=O)c1c(F)cccc1F (stereo unspecified)	x	x	-3.8	x	-8.1
O=C(NC1CCC(=O)N(CCOc2ccccc2)CC1)OCc1ccccc1 (stereo unspecified)	x	x	-0.5	x	-13.5
N#CCC(=N)N1CCN(c2ccccc2Cl)CC1	-7.4	-10.3%	0.9	-39.4	-2.1
CCOC(=O)C1(C)NC(c2cccs2)C2C(=O)N(c3ccccc3)C(=O)C21 (stereo unspecified)	1.6	-5.0%	-0.3	x	-8.2
O=C1C2C3C=CC(C3)C2C(=O)N1c1ccccc1OS(=O)(=O)c1ccccc1 (stereo unspecified)	-6.0	2.3%	-1.3	-6.2	5.3
CC(C)CC(=O)NNC(=O)c1ccc(Cl)cc1	2.3	0.5%	-5.5	x	6.1
COc1cc2c(cc1OC)C(c1ccc(Cl)cc1)=NCC2	x	-11.6%	-0.9	x	-1.9
CCC(c1nnnn1Cc1ccc2c(c1)OCO2)N1CCN(CC)CC1 (stereo unspecified)	1.0	-2.0%	0.4	x	-4.3
Cc1ccc(C)c(-n2c(-c3ccc4c(c3)OCO4)n[nH]c2=S)c1	3.6	-1.0%	1.1	6.5	0.9
COc1ccccc1NC(=O)C1CC(O)CN1C(=O)Oc1ccccc1 (stereo unspecified)	x	x	-0.3	x	-0.6
COc1ccc(N2CC(C(=O)N/N=C/c3cc([N+](=O)[O-])ccc3O)CC2=O)cc1 (stereo unspecified)	2.0	1.0%	2.2	x	8.9
Cc1ccc(-c2nc3ncccn3c2Nc2ccc3c(c2)OCO3)o1	2.7	4.8%	-0.7	-29.0	-2.1
COc1ccc([N+](=O)[O-])cc1N(CC(O)CN(C)C)S(=O)(=O)c1ccc(C)cc1 (stereo unspecified)	-19.1	-3.2%	-0.7	x	7.1
COc1cccc(C2CC(c3ccc(Cl)cc3)n3nc(N)nc3N2)c1 (stereo unspecified)	9.2	-8.4%	1.2	1.1	u	Arbovirus inh repeat=0.3
CCc1nnc(NC(=O)CSc2nnc(CSc3nc(C)cc(C)n3)n2C)s1	3.8	-8.7%	1.1	-36.2	u
CCC(C)c1ccccc1NC(=O)COC(=O)c1ccc(C)c(NC(=O)c2ccco2)c1 (stereo unspecified)	2.3	-6.4%	2.9	-8.1	-12.8
COc1cccc(OC)c1NC(=O)NC(=O)c1c(OC)c(Br)cc([N+](=O)[O-])c1OC	x	-6.7%	-0.1	x	31.0
CCc1nnc(NC(=O)CSc2nccn2-c2cccc(C)c2C)s1	-9.1	13.6%	1.3	-56.5	15.6	Arbovirus inh repeat=-10.2
O=C(CSc1nccc(=O)[nH]1)c1ccccc1Br	6.2	-3.9%	2.0	3.1	-3.6
CC1(C)CC(=O)C(C(N)=NC(=O)c2ccc([N+](=O)[O-])cc2)=C(O)C1	0.3	-8.1%	-1.0	x	-3.3
CCOC(=O)C1CCN(C2=NC(=O)/C(=C/c3ccc(O)cc3)S2)CC1	x	x	-2.3	x	1.3
COCc1cc(=O)n2[nH]c(C)c(-c3ccccc3)c2n1	x	x	-0.3	x	13.7
Cc1cccc(C(=O)O/N=C2\CCSc3ccc(C)cc32)c1	-0.6	-2.5%	-1.5	-33.2	3.7
CC(=O)Nc1ccc(S(=O)(=O)NC2CC(=O)N(c3ccc4c(c3)OCCO4)C2)cc1 (stereo unspecified)	x	x	0.3	x	0.6
COc1ccc(COc2cc(-c3cccc(OC)c3)nc3ccc(NC(=O)C(C)C)cc23)cc1	-17.9	-2.4%	-0.2	-31.0	-5.1
CN(C)CCCN(C(=O)COc1ccccc1)c1nc2c(Cl)cccc2s1	8.2	2.8%	0.4	x	-1.4
CC(C)(C)c1cc(N2CCOCC2)n2ncc(-c3ccccc3)c2n1	x	x	-0.8	x	2.0
Cc1ccccc1NC(=O)c1cccc2nc3ccccc3nc12	-18.2	x	3.7	-43.0	98.9
COc1cc(-c2nc(-c3ccc(Br)o3)no2)cc(OC)c1OC	-0.9	0.7%	1.2	-56.7	5.4
Nc1cc(-c2ccc(OC(F)(F)F)cc2)nn1-c1ccc(Cl)c(Cl)c1	x	-4.8%	-2.3	x	-2.0
COc1ccc(N2C(=O)c3ccccc3NC23CCCC3)cc1	1.3	0.3%	6.3	x	-6.4
CN(C)c1nn(C(=O)Nc2cccc(C(F)(F)F)c2)cc1-c1ccccc1	-10.8	-3.3%	2.5	-29.2	-6.1
O=C(Nc1ccc2oc(-c3cccc4ccccc34)nc2c1)c1ncn[nH]1	-25.6	-2.2%	-1.6	-17.9	4.0
Cc1sc(-c2ccncc2)nc1OC(=O)c1cc(Cl)cc(Cl)c1	3.3	4.3%	-2.9	-12.5	-10.7
COc1ccc(C(=O)NC(NC(=S)Nc2ccc(S(N)(=O)=O)cc2)C(Cl)(Cl)Cl)cc1 (stereo unspecified)	-8.6	-0.7%	5.8	-18.0	-7.1
O=C(Nc1ccc(Br)cc1F)C1CCCO1 (stereo unspecified)	6.6	-20.4%	-2.0	-19.7	5.2

Next results.
SMILES	Arbovirus inh	Mtb growth	RecA intein inh	YopH inh	Mtb betalactam	others
COc1ccc(NC(=O)CN(C)C(=O)Cn2c(=O)oc3ccccc32)cc1	x	x	-0.7	x	-5.3
CC(C)OC(=O)c1ccc(COC(=O)CNC(=O)c2ccco2)cc1	x	x	-0.7	x	3.0
C/C(=N\Nc1cccc2cccnc12)c1ccccn1	-3.1	53.2%	-5.9	x	100.4
Cc1cc(C)cc(C(=O)NCC(=O)OCC(=O)Nc2cccnc2Cl)c1	3.6	2.1%	-3.5	x	2.3
O=C(O)[C@@H]1CCCN1C(=O)CCc1c[nH]c2ccccc12	x	x	0.0	x	0.0
Cc1c(C(=O)NC2CC(=O)N(c3ccc4c(c3)OCCO4)C2)cccc1[N+](=O)[O-] (stereo unspecified)	x	x	3.1	x	-8.1
C=CCn1c(-c2ccc([N+](=O)[O-])cc2)n[nH]c1=S	-0.3	-2.0%	-0.1	-26.2	-3.1
COCCNC(=O)C(=O)c1cc(C)n(-c2ccc([N+](=O)[O-])cc2)c1C	4.1	-5.4%	2.8	-19.7	-0.8
Cc1ccc(C(=O)Nc2cccc(O)c2)cc1S(=O)(=O)N1CCCCCC1	x	x	10.8	x	-3.4
Cc1cc(NS(=O)(=O)c2ccc(-c3ccccc3)cc2)no1	7.3	-1.9%	-1.7	-9.5	-10.3
O=C(NC1=NCCS1)C1CCCCC1	3.8	6.5%	-1.5	x	9.3

A portion of the library; count on the stated rates, not on these rows.
